AID504770: growth inhibitors of E. coli YBA685 in a screen for V. cholerae RctB (chromosome II replication) inhibitors. E. coli YBA685 rctB-dependent plasmid, OD600 growth, 3 h; hits give low values. z-score (test concentration not listed). hit rate 0.27% among 130,000;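 active = z-score under -2 on both plates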;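 note: wells of about 30 µL received 100 nL stock; score is relative to mean and SD of the test wells; the first replicate is given; strong numbers were not always called active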
Ba CapD inh: inhibitors of Bacillus anthracis CapD enzyme; purified CapD enzyme, fluorescence intensity read-out; hits give low values; some hits fall short of the stated cut; hit rate 0.23% among 140,000; z-score (test concentration not listed); AID 492967;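 active = z-score under -4 in either of two replicates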;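 note: stock transfer was 100 nL into about 40 µL; score is relative to mean and spread of the plate; one replicate is shown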
* = called active by the depositor; i = inactive; . = no result given; & = joins results of further samples. Random draw from the library. Share with any hit: about 0.37%.

The line under a structure holds: AID504770 | Ba CapD inh
COc1ccc(N2C(=O)C3C(c4ccccc4)OC4(C(=O)c5ccccc5C4=O)C3C2=O)cc1OC (centres undefined)
→ . | -0.11
O=S(=O)(Nc1ccc(O)c(Sc2nc3ccccc3s2)c1)c1ccccc1
→ 1.1 | -0.44
Cc1nnc2ccc(NCc3ccccc3)nn12
→ -0.4 | 2.4
Cc1snc(SCc2c(F)cccc2Cl)c1C#N
→ -0.5 | -0.36
CCOC(=O)c1c(C)n(-c2ccc(C)cc2C)c2ccc(OC(=O)/C=C/c3ccccc3)cc12
→ . | 0
O=C(COc1ccc(Cl)cc1)NCc1n[nH]c(=S)n1-c1cccc(Cl)c1
→ -0.9 | -0.2
Cc1cc(NCCN2CCCCC2)c2ccc3ccccc3c2n1
→ 1.1 | -0.37
CCc1nnc(NC(=O)c2sc3nc4ccc(OC)cc4cc3c2N)s1
→ -0.05 | .
Cc1ccc(NC(=O)Cn2cnc3sc(C(=O)N4CCN(c5ccc(F)cc5)CC4)c(C)c3c2=O)cc1Cl
→ . | -0.22
Cc1cc(=O)oc2cc(OCC(O)CN(C)C3CCCCC3)ccc12 (centres undefined)
→ -0.5 | .
N#CC1=C(N)OC2=C(CN(Cc3ccccc3)C/C2=C\c2cccs2)C1c1cccs1 (centres undefined)
→ . | -0.12
CC(NS(=O)(=O)c1ccc2c3c(cccc13)C(=O)N2)C1C2CC3CC(C2)CC1C3 (centres undefined)
→ . | 1
O=C(Nc1ccc(O)c(-c2nc3ccccc3o2)c1)c1ccccc1
→ 0.9 | .
S=c1[nH]c2ccccc2n1CCOc1ccccc1
→ 0.2 | .
CCCNS(=O)(=O)c1ccc2c(c1)CCCN2C(C)=O
→ -1.1 | 0.36
CN(Cn1c(=O)oc2cc(Br)ccc21)C1CCCCC1
→ -0.7 | 0.15
CCOC(=O)C1=C(c2ccccc2)OC(N)=C(C#N)C1c1cccc(Br)c1 (centres undefined)
→ . | 2.4
COCC(C)NC(=O)Nc1c[nH]c2ccccc12 (centres undefined)
→ -2.1 | .
CCOC(=O)c1sc2nc(SCC#N)n(CCc3ccccc3)c(=O)c2c1C
→ . | -0.76
Cc1nn(CC(C)C)c(Cl)c1C(=O)N1CCCc2ccccc21
→ -0.15 | .
O=C(O)C1C2CC3C(OC(=O)C31)C2Cl (centres undefined)
→ . | 1.3
COc1ccc(Nc2ncnc3ccccc23)cc1
→ -0.3 | 0.29
Cc1ccc(-c2nc(N)c3c(-c4ccc(C)cc4)nn(C(C)(C)C)c3n2)cc1
→ . | -0.05
COC(=O)c1sccc1NC(=S)N1CCCC1
→ 0.25 | 31
CCCCOC(=O)c1ccc(NC(=O)c2cnccn2)cc1
→ -1.3 | -0.17
O=C1NCCNC1Cc1ccc2ccccc2n1 (centres undefined)
→ 1.1 | .
CC(/C=C/c1cccnc1)=C\C(=O)O
→ -0.9 | i
S=C(NCCN1CCOCC1)NC1CCSc2ccccc21 (centres undefined)
→ 0.7 | .
O=C(O)CCNc1ncnc2ccc(Br)cc12
→ -0.85 | -0.41
C=C(C)C(CC=C(C)C)COC(=O)NNC(=O)/C=C/c1ccc(F)cc1Cl (centres undefined)
→ . | 11
O=C(CC1OCCN(Cc2ccccc2)C1=O)Nc1ccc(Br)cc1Br (centres undefined)
→ -0.2 | 1.5
COC(=O)Cc1[nH]n(-c2ccccc2)c(=O)c1C(C)=NCc1cccnc1
→ 1.9 | .
Cc1ccc(-c2csc3ncnc(Sc4nnc(CN5CCCCCC5=O)o4)c23)cc1
→ -0.5 | .
COc1ccc(CN(Cc2ccco2)S(=O)(=O)c2cc(C)ccc2OC)cc1Br
→ . | 0.43
CN(C)c1ccc(C2NC(=S)NC3=C2N2CCC3CC2)cc1 (centres undefined)
→ 0.25 | 0.8
Cc1cccn2c(=O)cc(CN3CCN(S(=O)(=O)c4ccc5c(c4)OCCCO5)CC3)nc12
→ -0.1 | .
CCOC(=O)CC(=O)CSc1nc2c(sc(=S)n2-c2cc(Cl)ccc2OC)c(=O)[nH]1
→ . | -1.2
O=C(NCc1ccccc1Cl)C1COc2ccccc2O1 (centres undefined)
→ -0.6 | .
CN(C(=O)c1cc2c(Cl)nc3ccccc3c2s1)c1ccccc1
→ -0.2 | -0.99
O=C1C(c2ccc(I)cc2)=C(O)c2ccccc21
→ -0.6 | 0.055
Cc1cccc(-n2cnc(C(=O)N/N=C\c3ccc(Br)cc3)c2)n1
→ . | 0.53
C=CCn1c(-c2ccccc2)nn(CNc2ccccc2Cl)c1=S
→ -0.4 | 0.48
O=C(Oc1ccccc1)c1cn(-c2ccccc2)nc1-c1cccnc1
→ 1.7 | -0.035
COc1cc(OC)cc(C(=O)N/C(N)=N\c2nc3ccccc3s2)c1
→ 0 | 0.11
CC(C)(C)NC(=S)N1CCn2cccc2C1c1ccc(F)cc1 (centres undefined)
→ 0.6 | -0.015
CC1=C(C(=O)OCC(C)C)C(c2cc3c(cc2Br)OCO3)NC(=O)N1C (centres undefined)
→ . | -0.065
Cc1ccc(N2NC3(CCC(C)CC3)NC2=S)cc1 (centres undefined)
→ . | 0.01
CC(C)(C)c1cc(CCC(=O)OCCOC(=O)CCc2cc(C(C)(C)C)c(O)c(C(C)(C)C)c2)cc(C(C)(C)C)c1O
→ . | -1.2
COc1cc(OC)c(C2N(Cc3ccccc3)CCN2Cc2ccccc2)cc1Br
→ . | 0.26
O=C(CSc1ccccc1Cl)c1ccco1
→ 0.15 | -1.2
CCc1ccc(C2=NN(c3ccccc3)C3(SC(C(C)=O)=NN3c3cccc(Cl)c3)c3ccccc32)cc1 (centres undefined)
→ . | -0.15
Cc1nn(CC(C)C)c(Cl)c1C(=O)N1CCc2ccccc2C1
→ -0.8 | .
CS(=O)(=O)c1ccc(S(=O)(=O)N2CCN(Cc3ccc(Oc4ccccc4)cc3)CC2)cc1
→ . | -0.03
CN(C(=O)CSc1ccc(Br)cc1)C1CCCCC1
→ -0.35 | 0.81
COC(=O)c1cc(S(=O)(=O)N2CCCC2)oc1C
→ -0.2 | -0.19
Oc1cc(Cc2nc3ccccc3s2)c(O)cc1Cc1nc2ccccc2s1
→ 1.4 | 15
COc1ccc(Nc2nc(NCCC3=CCCCC3)nc(N3CCOCC3)n2)cc1
→ . | 0.085
Cc1cc(C(=O)OC(C)C(=O)Nc2cccc(Cl)c2)c2ccccc2n1 (centres undefined)
→ 0.35 | 0.86
CCOC(=O)C1=C(C)NC(C)=C(C(=O)OCC)C1C(=O)OCC(=O)NC1CCCCCC1
→ 2.4 | .
Cc1ccsc1CNS(=O)(=O)c1cccc2nonc12
→ 0.75 | -1

2 entries from above, field by field.
Cc1ccc(-c2csc3ncnc(Sc4nnc(CN5CCCCCC5=O)o4)c23)cc1
  AID504770 = -0.5 | Ba CapD inh = .

CCc1ccc(C2=NN(c3ccccc3)C3(SC(C(C)=O)=NN3c3cccc(Cl)c3)c3ccccc32)cc1 (centres undefined)
  AID504770 = . | Ba CapD inh = -0.15

Following part:
The line under a structure holds: AID504770 | Ba CapD inh
CC(=O)N1CCOc2ccc(S(=O)(=O)Nc3cc(C(F)(F)F)cc(C(F)(F)F)c3)cc21
→ 0.1 | 0.17
CCN(CC)CCn1nc2c3c(cccc3c1=O)-c1ccccc1-2
→ 0.3 | 0.02
CC(O/N=C/c1ccccc1OC(F)F)C(=O)NC1CCCC1 (centres undefined)
→ -0.55 | .
Cc1n[nH]c(C)c1Nc1nc(-c2ccccc2)cs1
→ 0.15 | -0.57
Cc1oc(C(C)(C)C)cc1-c1cc(N)n(-c2ccc(I)cc2)n1
→ -0.15 | 9.7
Cc1ccccc1N1C(S)=C(C#N)C(=O)NC1c1ccco1 (centres undefined)
→ -0.55 | .
CCOC(=O)CC(=O)CSc1nc2c(c(-c3cccs3)c1C#N)CCC2
→ . | 4.2
O=C(NCc1ccccc1)c1cnc(N2CCCC2)nc1
→ -0.55 | 3.3
O=C(NCC1COc2ccccc2O1)c1ccc2c(Cl)c3c(nc2c1)CCC3 (centres undefined)
→ 1.4 | 0.67
c1ccc(CN2CCN(Cc3ccccc3)C2c2ccccc2)cc1
→ -0.65 | -0.48
COC(=O)C1CC2CCC1C2 (centres undefined)
→ 0.8 | .
O=C(CN1CCN(c2ncc(C(F)(F)F)cc2Cl)CC1)N1CC(O)CO1 (centres undefined)
→ . | -0.52
CSc1cc(-c2ccc(F)cc2)nn1S(=O)(=O)c1cccc(C(F)(F)F)c1
→ 1.6 | -0.27
O=C(CCc1nc2ccccc2[nH]1)N1CCN(C2CCCCC2)CC1
→ -1 | 0.66
c1ccc2c(c1)nc(N1CCOCC1)n1cc(N3CCCC3)nc21
→ 1.2 | .
N#CC(c1ccccc1)c1ccc2c(C(F)(F)F)cc(C(F)(F)F)nc2n1 (centres undefined)
→ . | 0.02
CCCCOc1ccc(C(=O)On2c(-c3cc(OC)cc(OC)c3)nc3ccccc3c2=O)cc1
→ . | -0.89
O=C1NC(c2ccc([N+](=O)[O-])o2)Nc2sc3c(c21)CCCC3 (centres undefined)
→ . | -1.6
Cn1c(=O)c2c(nc(Cl)n2CC(=O)c2ccc([N+](=O)[O-])cc2)n(C)c1=O
→ . | 0.15
CCCOC(=O)C1=C(C)N(CC)C(=O)NC1c1ccccc1Cl (centres undefined)
→ -0.9 | -0.81
CCCCc1ccc2nc(N)sc2c1
→ -1.1 | -0.71
N#C/C(=C\c1ccc(-c2ccccc2)o1)c1ccccc1
→ 2 | 5.7
COc1cccc(/C=N/n2cnnc2)c1
→ -0.6 | -0.6
O=C(C1COc2ccccc2O1)N1CCCC1 (centres undefined)
→ -0.4 | .
O=C1c2nc3cc(-c4ccccc4)[nH]n3c(=O)c2CN1Cc1ccccc1
→ 1.1 | 46
O/C(=C\Sc1nnc(Cc2ccccc2)o1)c1ccc(F)cc1
→ -0.95 | .
CSc1sc(C(=O)NNC(=O)OCCN2CCS(=O)(=O)CC2)cc1-c1nc(C)cs1
→ . | 6
Cc1ccsc1C=NCCc1ccc(S(N)(=O)=O)cc1
→ -0.85 | .
COc1cc2[nH]c(=O)n(CCCC(=O)N3CCN(c4ccc(Cl)cc4)CC3)c(=O)c2cc1OC
→ 1.8 | 0.81
CCCCCCNC(=O)NCCCCCC
→ . | 0.47

Quoted from the listing:
Entry of `CCc1ccc(C2=NN(c3ccccc3)C3(SC(C(C)=O)=NN3c3cccc(Cl)c3)c3ccccc32)cc1` (centres undefined) under Ba CapD inh: -0.15
Entry of `O=S(=O)(Nc1ccc(O)c(Sc2nc3ccccc3s2)c1)c1ccccc1` under Ba CapD inh: -0.44

In another format: 3 of the compounds above.
Compound	AID504770	Ba CapD inh
c1ccc2c(c1)nc(N1CCOCC1)n1cc(N3CCCC3)nc21	1.2	.
O=C(CN1CCN(c2ncc(C(F)(F)F)cc2Cl)CC1)N1CC(O)CO1 (centres undefined)	.	-0.52
CCN(CC)CCn1nc2c3c(cccc3c1=O)-c1ccccc1-2	0.3	0.02

New compounds follow:
The line under a structure holds: AID504770 | Ba CapD inh
CN(C)S(=O)(=O)c1ccc(SCC(=O)NC(C)(C)C)nc1
→ 1.7 | .
Nc1c(Br)cc(Br)c2cccnc12
→ -0.65 | -0.11
O=C1CC(=O)CC(c2ccc(Cl)cc2Cl)C1
→ . | -0.71
NC1=NC(=O)/C(=C/c2ccc(I)o2)S1
→ 0.2 | -0.24
Cn1nc(C(F)(F)F)c(-c2ccc(Br)cc2)c1NC(=O)C1CCC1C(=O)O (centres undefined)
→ 0.5 | -0.42
O=c1[nH]c2ccccc2n1C1CCN(CCCC(c2ccc(F)cc2)c2ccc(F)cc2)CC1
→ 0 | 0.34&16
N#Cc1sccc1Br
→ . | 0.29
Nc1ccccc1NC1=CC(=O)CC(c2ccccc2)C1 (centres undefined)
→ -0.45 | 0.28
CCN(CC)S(=O)(=O)c1ccc(C(=O)Nc2ccc3c(c2)C(=O)c2ccccc2C3=O)cc1
→ . | -0.35
CC(=O)Nc1ccc(-n2sc3c(c2=S)-c2cccc(C)c2NC3(C)C)cc1
→ . | -0.23
Cc1cccc(CCNCc2cc3cc4c(cc3[nH]c2=O)OCO4)c1
→ -0.6 | .
Cc1occc1-c1nnc(SCc2nn[nH]n2)n1-c1ccccc1
→ -0.7 | -0.11
CCOC(=O)c1cc(N2C(=O)C3C4C=CC(C(OC(C)=O)OC(C)=O)(O4)C3C2=O)ccc1Cl (centres undefined)
→ . | -0.47
CCOC(=O)c1nc(OC)cc(OC)n1
→ . | -0.15
O=C(Nc1nnc(-c2cccc([N+](=O)[O-])c2)s1)c1ccc(N2C(=O)CCC2=O)cc1
→ . | -0.54
CCn1c(/N=C(\C)c2cc(Cl)ccc2O)nc2ccccc21
→ -0.05 | -0.27
O=C(O)CC1CCCC(c2ccccc2)C1=O (centres undefined)
→ -0.75 | .
Cc1ccccc1OCCCC(=O)Nc1cccc(C(F)(F)F)c1
→ -1.5 | -0.4
O=c1nc(N2CCOCC2)nc(N2CCOCC2)[nH]1
→ 0.25 | .
CCCCOc1cccc2c1CCN(Cc1ccccc1)C2=O
→ 1.3 | .
CCC(Sc1nnc(COc2ccccc2)n1C)C(=O)Nc1ccccc1 (centres undefined)
→ -0.7 | -0.035
COC12CC3CC(CC(CO)(C3)O1)C2
→ . | 0.07
CCn1c(SCC(=O)N2CCCc3ccccc32)nnc1-c1c[nH]c2ccccc12
→ 0 | 0.55
O=S(=O)(c1ccc(F)cc1)N1CCCN(c2nccc(C(F)(F)F)n2)CC1
→ -0.05 | 5
O=C(NCc1ccco1)c1cccc(COc2ccccc2Br)c1
→ 1.4 | -0.59
Cc1cc(C(=O)COc2ccc(Cl)cc2)c(C)n1-c1ccon1
→ 0.15 | .
Cc1ccccc1-n1nc2c(c1NC(=O)c1cc(Br)ccc1Cl)CS(=O)(=O)C2
→ . | -0.12
CCOC(=O)CN1C(=O)C(O)(CC(=O)c2cc(O)ccc2O)c2ccccc21 (centres undefined)
→ . | -0.74
COc1cccc(C=NCCN2CCOCC2)c1O
→ -0.6 | -1.4
CC(C)(C)c1ccc(C2NC(=O)c3ccccc3N2)cc1 (centres undefined)
→ 1.8 | .
C=CCN(C(=O)Cn1c(=O)n(Cc2ccco2)c(=O)c2cc(OC)c(OC)cc21)c1ccccc1
→ -0.35 | 12

High-throughput results (PubChem)
